Polio RdRp inh: poliovirus RdRp elongation inhibitors, primary screen, biochemical, fluorescence polarization, total intensity; % elongation, % (compound at 16.7 µg/mL); Genome polyprotein (Poliovirus type 1 (strain Mahoney)), P03300; poliovirus polymerase elongation; hits give low values; 150,000 tested, 0.66% active; in the data active = % elongation below about 90%; also: some results filed as inactive read as strong as hits
Target sequence (P03300 1749-2209 limits assumed): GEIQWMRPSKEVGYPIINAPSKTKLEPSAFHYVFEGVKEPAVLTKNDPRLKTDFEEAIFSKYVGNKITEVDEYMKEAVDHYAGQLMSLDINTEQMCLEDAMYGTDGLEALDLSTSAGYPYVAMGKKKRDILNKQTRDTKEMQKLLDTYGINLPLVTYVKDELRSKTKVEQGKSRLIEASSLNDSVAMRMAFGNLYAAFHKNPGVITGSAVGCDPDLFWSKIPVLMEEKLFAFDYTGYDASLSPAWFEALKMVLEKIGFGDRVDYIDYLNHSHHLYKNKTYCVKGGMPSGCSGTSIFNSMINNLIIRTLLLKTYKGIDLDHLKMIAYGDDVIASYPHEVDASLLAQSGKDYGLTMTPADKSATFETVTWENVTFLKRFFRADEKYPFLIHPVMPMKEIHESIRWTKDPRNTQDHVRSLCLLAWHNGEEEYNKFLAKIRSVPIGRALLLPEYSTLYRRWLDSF
Polio RdRp inh intensity: second read-out of Polio RdRp inh, no call of its own (marks repeat the call); % elongation; measured here: total intensity read-out; formula for this scale not given here;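 total fluorescence in place of polarization; lower means less elongation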
* marks the source's active call; other numbers are inactive results.

SMILES | Polio RdRp inh | Polio RdRp inh intensity
COCCn1c(C)cc(O)c(C(c2ccccc2)N2CCN(CCO)CC2)c1=O (stereo not given) | 109 | 108
Cc1cccc(C(=O)Nc2ccc(N3CC=C(c4ccccc4C)CC3)c(C(=O)O)c2)c1 | 102 | 109
Cc1ccc(S(=O)(=O)N2CCc3cc(C(=O)Nc4c(F)cccc4F)ccc32)cc1 | 108 | 103
COc1ccc(-c2cc(C(F)(F)F)nc(SCC(=O)NC(C)c3ccccc3)n2)cc1 (stereo not given) | 105 | 105
COc1ccc(N2CCN(C(=O)CSCc3ccc(C)cc3)CC2)cc1 | 114 | 109
CCCCCCc1c(C)c2c(cc(C)c3c(C)coc32)oc1=O | 109 | 111
Cc1cc(C)cc(C(=O)NCC(c2ccc(N(C)C)cc2)N2CCCC2)c1 (stereo not given) | 104 | 107
Cc1c(-c2ccccc2)n(-c2ccc(Cl)cc2)c2nc3c(c(=O)n(C)c(=O)n3C)n12 | 106 | 108
CCOc1cc(-c2nc(-c3ccc(-c4ccc(OC)cc4)nc3OC)no2)cc(OCC)c1OCC | 111 | 117
CCOc1ccc(C2CC(=O)c3c([nH]c(C(=O)OCc4ccccc4)c3C)C2)cc1 (stereo not given) | 103 | 104
Cc1ccc(Cl)cc1N1CCN(S(=O)(=O)c2ccc3c(c2)CCN3C(=O)C2CCC2)CC1 | 107 | 111
CC(=O)NCCNC(=O)c1ccc2c(=O)n(CCc3ccccc3)c(=O)[nH]c2c1 | 104 | 108
Cc1cccc2sc(N3CCN(C(=O)c4ccco4)CC3)nc12 | 103 | 109
COc1ccc(CNC(=O)c2cc(-c3ccc(Cl)cc3)n[nH]2)cc1 | 110 | 112
Cc1ccccc1-c1nnc(SCC(=O)N(C)c2ccccc2)o1 | 105 | 110
COc1ccc(Nc2cc(C(=O)NCCCN(C)Cc3ccccc3)c3ccccc3n2)cc1OC | 102 | 95
CCC(CC)C(=O)Nc1ccc2nc(SCC(=O)N3c4ccccc4CC3C)sc2c1 (stereo not given) | 107 | 109
Fc1cccc(-n2ncc3c2ncn2nc(COc4ccc(Cl)cc4)nc32)c1 | 123 | 116
Cc1ccc2nc(-c3ccco3)c(Nc3ccc4c(c3)OCCO4)n2c1 | 108 | 112
CCOc1cc(C(=O)NCCc2csc3nc(-c4ccccc4F)nn23)cc(OCC)c1OCC | 106 | 110
CC1=C(C(=O)NCc2ccc(Cl)cc2)C2(CCCCCC2)OC1=O | 104 | 103
COc1ccc(NC(=O)CN2CCN(S(=O)(=O)c3ccc(Br)cc3)CC2)cc1 | 100 | 96
Cc1oc2c(c1C(=O)NCc1ccccc1F)C1=NCCN1C=N2 | 112 | 117
O=C(NCCC1=CCCCC1)c1ccc2c(c1)N(Cc1ccccc1)C(=O)c1ccccc1S2=O (stereo not given) | 101 | 100
COC(=O)NCc1c(C)nn(-c2ccccc2)c1-n1cccc1 | 106 | 108
COc1ccc2cc3cc(C(=O)N4CCN(c5cccc(Cl)c5)CC4)sc3nc2c1 | 119 | 118
O=C(NCCc1ccccc1)c1cc(-c2ccc(Cl)cc2)on1 | 106 | 112
CCCCN(C(=O)C1CCC(CNS(=O)(=O)c2cccc3nsnc23)CC1)c1ccccc1 (stereo not given) | 108 | 109
Cc1ccc(NC(=O)C(Cc2ccccc2)NS(=O)(=O)c2ccc3c(c2)oc(=O)n3C)cc1F (stereo not given) | 103 | 105
Cc1ccc(C2Nc3cc(C)c(C)cc3-n3c(-c4ccccc4)c4c(=O)n(C)c(=O)n(C)c4c32)o1 (stereo not given) | 103 | 110

Entries above that contain an NH in an aromatic ring, in the order listed:
SMILES | Polio RdRp inh | Polio RdRp inh intensity
CCOc1ccc(C2CC(=O)c3c([nH]c(C(=O)OCc4ccccc4)c3C)C2)cc1 (stereo not given) | 103 | 104
CC(=O)NCCNC(=O)c1ccc2c(=O)n(CCc3ccccc3)c(=O)[nH]c2c1 | 104 | 108
COc1ccc(CNC(=O)c2cc(-c3ccc(Cl)cc3)n[nH]2)cc1 | 110 | 112

Further structures follow.
SMILES | Polio RdRp inh | Polio RdRp inh intensity
CC(=O)c1cccc(NC(=O)Cn2c(SCC(=O)Nc3ccc(F)cc3)nc3ccccc32)c1 | 101 | 104
O=S(=O)(NCCc1csc2nc(-c3ccc(F)cc3)nn12)c1ccc(Oc2ccccc2)cc1 | 114 | 115
CCc1ccccc1Nc1sc(C(=O)c2cccc(OC)c2)c(N)c1S(=O)(=O)c1ccccc1 | 102 | 106
CC1CCn2c(nc3cc(C(=O)NCCc4ccc(Cl)cc4)ccc32)C1 (stereo not given) | 100 | 99
CC(=O)Nc1ccc(NC(=O)CSc2cn(CC(=O)N(C(C)C)C(C)C)c3ccccc23)cc1 | 118 | 120
CC(=O)c1cccc(NC(=O)C2CCN(S(=O)(=O)c3ccc4c(c3)oc(=O)n4C)CC2)c1 | 106 | 108
CCOc1ccc(-n2c(=O)c3c(C)c(C)sc3n(Cc3ccccc3C)c2=O)cc1 | 107 | 110
CNC(=O)C(=O)NCC(c1ccc2c(c1)OCO2)N1CCOCC1 (stereo not given) | 113 | 104
O=C(CN1C(=O)COc2ccc(S(=O)(=O)NC3CCCC3)cc21)Nc1ccc(Cl)cc1 | 105 | 112
Cc1ccc(N(CC(C)C)S(=O)(=O)c2nnc(NC(=O)c3cccs3)s2)cc1 | 110 | 118

Shown with values under each structure: part of the list above
Every second line gives: Polio RdRp inh	Polio RdRp inh intensity
CC1CCn2c(nc3cc(C(=O)NCCc4ccc(Cl)cc4)ccc32)C1 (stereo not given)
    100	99
CC(=O)Nc1ccc(NC(=O)CSc2cn(CC(=O)N(C(C)C)C(C)C)c3ccccc23)cc1
    118	120
CC(=O)c1cccc(NC(=O)C2CCN(S(=O)(=O)c3ccc4c(c3)oc(=O)n4C)CC2)c1
    106	108
CCOc1ccc(-n2c(=O)c3c(C)c(C)sc3n(Cc3ccccc3C)c2=O)cc1
    107	110
CNC(=O)C(=O)NCC(c1ccc2c(c1)OCO2)N1CCOCC1 (stereo not given)
    113	104

Other structures follow.
SMILES | Polio RdRp inh | Polio RdRp inh intensity
Cc1cc(C)c(NC(=O)Cn2c(=O)n(CCc3ccccc3)c(=O)c3ccccc32)c(C)c1 | 110 | 112
Cc1ccc(-c2c3c(=O)n(C)c(=O)n(C)c3cn2-c2cc(C)ccc2O)cc1 | 105 | 108
COc1ccc(NC(=O)CSc2oc(-c3cccs3)nc2S(=O)(=O)c2ccc(C)cc2)c(OC)c1 | 104 | 107
COC(=O)c1ccc(NC(=O)CSc2nnc3c4ccccc4n(C(C)C)c3n2)cc1 | 98 | 116
COC(=O)c1cc2oc3ccccc3c2n1CC(=O)Nc1cccc(SC)c1 | 101 | 110
Cc1cc(C)c2oc(-c3cccc(NC(=O)c4ccco4)c3)nc2c1 | 110 | 110
Cc1cc(Nc2cccc(C(F)(F)F)c2)nc2ccc(NC(=O)c3ccc(=O)[nH]c3)cc12 | 102 | 107
COc1ccc(CCNC(=O)C2(c3cccs3)CCOCC2)cc1 | 101 | 101
Cc1ccc(Cn2cc(C(=O)c3ccc(F)cc3)c(=O)c3cc4c(cc32)OCO4)cc1 | 102 | 105
CCOC(=O)C(C)Sc1ccc2nnc(CCNS(=O)(=O)c3ccc(C)cc3)n2n1 (stereo not given) | 110 | 112

Rewritten field by field: entries from further up.
> Cc1cc(C)c(NC(=O)Cn2c(=O)n(CCc3ccccc3)c(=O)c3ccccc32)c(C)c1
  Polio RdRp inh: 110
  Polio RdRp inh intensity: 112
> Cc1ccc(-c2c3c(=O)n(C)c(=O)n(C)c3cn2-c2cc(C)ccc2O)cc1
  Polio RdRp inh: 105
  Polio RdRp inh intensity: 108
> COc1ccc(NC(=O)CSc2oc(-c3cccs3)nc2S(=O)(=O)c2ccc(C)cc2)c(OC)c1
  Polio RdRp inh: 104
  Polio RdRp inh intensity: 107
> COC(=O)c1ccc(NC(=O)CSc2nnc3c4ccccc4n(C(C)C)c3n2)cc1
  Polio RdRp inh: 98
  Polio RdRp inh intensity: 116

Carrying on.
SMILES | Polio RdRp inh | Polio RdRp inh intensity
COC(=O)CN1C(=O)C(C)(C)c2cc(S(=O)(=O)Nc3ccc(Br)cc3F)ccc21 | 108 | 109
Cc1ccc(C)c(N2CCN(S(=O)(=O)c3csc(C(N)=O)c3)CC2)c1 | 107 | 111
CCOC(=O)c1noc2ncn(CC(=O)O)c(=O)c12 | 105 | 104
CCC1Oc2ccc(C)cc2N(CC(=O)N2CCN(c3ccccc3OC)CC2)C1=O (stereo not given) | 114 | 119
COc1cc2ccccc2cc1C(=O)Nc1ccc2oc(-c3cc(Br)ccc3Cl)nc2c1 | 105 | 113
CCOC(=O)c1c(NC(=O)CSc2cn(CCNC(=O)c3cccc(C(F)(F)F)c3)c3ccccc23)sc2c1CCC2 | 105 | 109
CC(=O)c1cccc(NC(=O)CN2C(=O)CN(C)C(=O)c3ccccc32)c1 | 102 | 107
CCCc1cc(=O)[nH]c2nnc(SCC)n12 | 108 | 103
CCc1ccc(NC(=O)Cn2c(=O)n(CCCC(=O)NCc3ccccc3Cl)c(=O)c3ccccc32)cc1 | 108 | 105
COC(=O)CN1C(=O)CSc2ccc(S(=O)(=O)Nc3ccc(C(C)=O)cc3)cc21 | 105 | 106
CCOc1ccc(CNC(=O)c2ccc3c(c2)sc2nc(-c4ccc(OC)cc4)cn23)cc1 | 107 | 98
CC1(C)C(=O)N(CC(=O)Nc2ccc(OC(F)(F)F)cc2)c2ccccc21 | 114 | 112
CC1CCC(NC(=O)c2ccc3c(c2)N(Cc2ccccc2)C(=O)c2ccccc2S3(=O)=O)CC1 (stereo not given) | 108 | 107
CCn1ccc2c(OCC(=O)NCc3ccccc3)cccc2c1=O | 105 | 109
COC(=O)c1ccc(NC(=O)c2cc(S(=O)(=O)N3CCC(C)CC3)cn2C)cc1 | 111 | 103
CCOC(=O)c1cc(S(=O)(=O)N2CCN(c3cccc(OC)c3)CC2)[nH]n1 | 105 | 101
CCS(=O)(=O)N1CCc2cc(C(=O)Nc3cc(OC)c(Cl)cc3OC)ccc21 | 111 | 105
CCCOc1ccc(-c2nonc2NC(=O)COc2ccc(C)cc2)cc1OCCC | 110 | 107
CCn1cc2nc(SCc3ccccc3F)n(Cc3ccc(C)cc3)c(=O)c2n1 | 103 | 108
Cc1cccc(NC(=O)CCNS(=O)(=O)c2ccc3c(c2)CCN3C(=O)C2CC2)c1 | 111 | 114
CCCCOc1ccc(CNC(=O)c2cnc3sc(N4CCCC4)nn3c2=O)cc1 | 104 | 99
CCCCN(c1ccccc1)S(=O)(=O)c1ccc2c(c1)CC(C)N2C(=O)C1CC1 (stereo not given) | 113 | 111
CCOC(=O)c1c(C)[nH]c(C)c1S(=O)(=O)N(C)CC(=O)Nc1cc(Cl)ccc1C | 114 | 119
Cc1ccc(NC(=O)CCCn2nc(C)c3sc4ccccc4c3c2=O)c(Cl)c1 | 98 | 96
Cc1cc(Cl)ccc1NC(=O)C1CCCN(c2nnc(C)c3c(C)n(-c4ccccc4)nc23)C1 (stereo not given) | 104 | 101
O=C(CSc1nc2ccccc2nc1Cc1ccc(Cl)cc1)N1CCN(c2ccccc2F)CC1 | 112 | 112
CCOC(=O)c1ccccc1NC(=O)CN(c1ccccc1OC)S(=O)(=O)c1ccc(C)cc1 | 108 | 112
Cc1ccc(S(=O)(=O)N2CCC(Oc3ccc(-n4cnnn4)cc3)CC2)cc1 | 108 | 107
COC(=O)c1cc(NC(=O)c2oc(=O)c3ccccc3c2-c2ccccc2)cc(C(=O)OC)c1 | 110 | 109
CCOC(=O)c1c(NC(=O)c2cc3nc(-c4ccc(Br)cc4)cc(C(F)(F)F)n3n2)sc(C(C)=O)c1C | 95 | 101
O=C1CC(c2ccccc2C(F)(F)F)c2c(c3ccccc3[nH]c2=O)O1 (stereo not given) | 104 | 108
CC(=O)c1ccc(NC(=O)CSc2nnc3c(n2)[nH]c2ccccc23)cc1 | 108 | 106
CCCCN(C)CCNC(=O)c1nn(-c2ccc(OC)c(Cl)c2)c(=O)c2c1c1ccccc1n2C | 104 | 107
Cc1ccc(-n2nc(CO)c(C(=O)NCC(c3ccccc3)c3ccccc3)n2)cc1 | 105 | 112
O=C(Nc1sc2c(c1C(=O)NCC1CCCO1)CCC2)c1cc(=O)c2cc(Cl)ccc2o1 (stereo not given) | 108 | 113
COc1ccccc1N1CCN(C(=O)c2cc(-c3ccccc3O)on2)CC1 | 109 | 125
CSc1ccc(C2c3[nH]c4ccccc4c3CCN2C(=O)CCC2CCCC2)cc1 (stereo not given) | 104 | 105
CCOC(=O)c1ccc(NC(=O)Cn2cc(C(=O)C3CC3)c3ccccc32)cc1 | 105 | 108
Cc1ccc(C)c(S(=O)(=O)c2nnn3c2nc(NC2CCCCC2)c2sccc23)c1 | 108 | 112
CN(C)c1ccc(CN(Cc2ccco2)C(=O)c2ccc(C(C)(C)C)cc2)cc1 | 109 | 105
CCOc1cccc2cc(-c3cn4c(n3)sc3ccccc34)c(=O)oc12 | 101 | 104
CCOc1ccc(NC(=O)Nc2ccc3snnc3c2)cc1 | 109 | 113
O=C(Nc1ccc2c(c1)OCCO2)c1cccn(Cc2cccc([N+](=O)[O-])c2)c1=O | 107 | 103
COc1cc(Cl)c(C)cc1NC(=O)CCc1c(C)nc2cc(-c3cccc(F)c3)nn2c1C | 106 | 106
O=C(Cn1c(=O)nc(-c2ccccc2)c2ccccc21)NCCc1ccc(Cl)cc1 | 109 | 106
CCOC(=O)c1cccc(NC(=O)c2ccc3snnc3c2)c1 | 107 | 109
Cc1ccc(-n2ncc3c(N4CCN(C)CC4)ncnc32)cc1Cl | 103 | 106
Cc1ccc(O)c(NC(=O)c2cc(-c3ccc(F)cc3)on2)c1 | 109 | 113
COc1ccc(NC(=O)c2sc3nc(C)c(C(=O)Nc4ccc(C)cc4C)c(-c4cccs4)c3c2N)cc1 | 104 | 104
COc1cc(OC)c(Nc2c3c(nc4nc(-c5cccs5)nn24)CCCC3)cc1Cl | 113 | 112
Cc1ccc2onc(CC(=O)N3CCN(c4ccccc4F)CC3)c2c1 | 108 | 110

Only part of the results is shown; rates above refer to the full screens.
